GIRK2 activ = GIRK2 channel activation | actives 0.05% (n = 63,000) | P48051 | HEK293-GIRK2 thallium flux, Thallos fluorescence | calls only for hits at 25 µM | AID 1259325;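 active = among the strongest 0.2% of first-round signals and kept after retests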;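 note: first round at about 10 µM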
Target sequence (P48051 whole entry, looked up): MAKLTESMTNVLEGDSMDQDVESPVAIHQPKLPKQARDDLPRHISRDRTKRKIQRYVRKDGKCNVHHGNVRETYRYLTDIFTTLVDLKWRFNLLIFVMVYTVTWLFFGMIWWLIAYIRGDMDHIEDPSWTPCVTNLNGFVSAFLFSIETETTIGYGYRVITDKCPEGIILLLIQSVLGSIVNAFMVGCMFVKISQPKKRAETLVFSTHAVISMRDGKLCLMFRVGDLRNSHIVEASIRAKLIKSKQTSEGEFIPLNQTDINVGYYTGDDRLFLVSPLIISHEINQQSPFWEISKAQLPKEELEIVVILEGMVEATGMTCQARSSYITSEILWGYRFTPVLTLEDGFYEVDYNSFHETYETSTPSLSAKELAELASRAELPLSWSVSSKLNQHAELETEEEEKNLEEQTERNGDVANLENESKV
Calls only; i = inactive. Only part of the results is shown (hit frequency here may not be typical).

mol | GIRK2 activ
O=C(CCCn1c(=O)c2ccccc2n(Cc2cccc([N+](=O)[O-])c2)c1=O)NCc1ccc(F)cc1 | i
O=C(Nc1sc2c(c1-c1nc3ccccc3s1)CCCC2)c1ccc(-c2ccccc2)cc1 | i
O=C(Nc1nnc(-c2ccsc2)o1)C1=COCCO1 | i
COc1cccc(CNC(=O)c2ccc(-n3cccn3)nc2)c1 | i
O=C(NCCN1CCN(c2ccc(F)cc2)CC1)c1cc(C2CC2)on1 | i
CCOC(=O)C1CCc2sc(NC(=O)c3nnn(-c4ccc(C)cc4)n3)nc21 (centres undefined) | i
O=S(=O)(c1ccccc1)c1nc(N(CCO)c2ccccc2)sc1Cl | i
COc1cccc(-c2c(NC(=O)c3cccs3)oc3ccc(Cl)cc3c2=O)c1 | i
COc1ccc(NC(=O)CN2CCC3(CC2)N=C(c2ccccc2)C(=O)N3)cc1OC | i
O=C(Nc1ccccc1)OC1CCCC(NS(=O)(=O)c2ccccc2)C1 (centres undefined) | i
COc1ccc(Cl)cc1S(=O)(=O)N1CCN(C(c2ccccc2)c2ccccc2)CC1 | i
CC(C)c1nccn1CC1CCN(S(=O)(=O)c2ccc(Br)s2)CC1 | i
CCOC(=O)C1CCN(CC(=O)c2ccc(O)c(C)c2O)CC1 | i
COCCNC(=O)N1CCC(c2nnc(C(F)(F)F)o2)CC1 | i
Cc1nc(-c2ccc(S(=O)(=O)N3CCc4ccccc4C3)s2)cs1 | i
CCc1ccc(S(=O)(=O)N2CCC(c3nn(C)c(=O)n3-c3ccccc3)CC2)s1 | i
Cc1cc(OCC(=O)NCc2ccccc2Br)nc(N2CCC(C)CC2)n1 | i
Cc1noc(NS(=O)(=O)c2ccc(NC(=O)COc3cccc(Br)c3)cc2)c1C | i
Cc1cc(N2C(=O)C(O)=C(C(=O)c3cc4ccccc4o3)C2c2ccc([N+](=O)[O-])cc2)no1 (centres undefined) | i
COc1cccc2cc(C(=O)N3CCC(COCc4ccccc4)CC3)oc12 | i
CC(=O)Nc1ccc(S(=O)(=O)NCCN2CCN(c3ccccc3)CC2)c(C)c1 | i
N#Cc1cccc(C(=O)Nc2ccc3c(c2)C(=O)NCC3)c1 | i
Cc1ccc(NCCNC(=O)Nc2cccc(C)c2C)nn1 | i
COc1ccc2nc(C)n(-c3ccc(C(=O)O)cc3)c(=O)c2c1 | i
O=C1/C(=C/c2ccccc2Br)Oc2c1ccc1c2CN(CCN2CCOCC2)CO1 | i
COc1ccc2[nH]cc(C(=O)O)c(=O)c2c1 | i
O=C(c1ccoc1)N1CCC(CNS(=O)(=O)Cc2ccc(C(F)(F)F)cc2)CC1 | i
CCNC(=O)c1sccc1S(=O)(=O)N1CCN(c2cccc(Cl)c2)CC1 | i
CCCCC[C@H](O)/C=C/[C@@H]1[C@@H](C/C=C\CCCCO)[C@@H](O)C[C@H]1O | i
Cc1c(C(=O)Nc2ccc(F)c(C(F)(F)F)c2)nnn1-c1nc2c(s1)CCCC2 | i
CCOc1ccc(-c2ccc(N3CCN(C(=O)Nc4ccc(F)c(F)c4)CC3)nn2)cc1 | i
COc1ccc(OCc2noc(CNS(=O)(=O)c3ccc(NC(C)=O)cc3)n2)cc1 | i
CCSc1nc2n(n1)C(c1cc(OC)c(O)c(OC)c1)C(C(=O)Nc1ccccc1C)=C(C)N2 (centres undefined) | i
Cc1cn2c3c(=O)n(Cc4c(Cl)cccc4Cl)c(=O)n(C)c3nc2n1CCCO | i
CCc1ccc(NCc2cc3ccc(OC)cc3n(CC(=O)Nc3ccccc3C)c2=O)cc1 | i
COc1ccc(S(=O)(=O)N(C)CCCC(=O)O)cc1N(C)S(=O)(=O)c1ccccc1 | i

Random excerpt: 6 compounds from above, in no set order.
mol | GIRK2 activ
COc1ccc(OCc2noc(CNS(=O)(=O)c3ccc(NC(C)=O)cc3)n2)cc1 | i
O=C(c1ccoc1)N1CCC(CNS(=O)(=O)Cc2ccc(C(F)(F)F)cc2)CC1 | i
CCNC(=O)c1sccc1S(=O)(=O)N1CCN(c2cccc(Cl)c2)CC1 | i
COc1ccc(S(=O)(=O)N(C)CCCC(=O)O)cc1N(C)S(=O)(=O)c1ccccc1 | i
O=C1/C(=C/c2ccccc2Br)Oc2c1ccc1c2CN(CCN2CCOCC2)CO1 | i
CCSc1nc2n(n1)C(c1cc(OC)c(O)c(OC)c1)C(C(=O)Nc1ccccc1C)=C(C)N2 (centres undefined) | i

Following part:
mol | GIRK2 activ
CCOc1cccc(-c2noc(CSc3nc4[nH]ncc4c(=O)n3-c3ccccc3)n2)c1 | i
O=C(CCCCCc1ccccc1)c1nc2ncccc2o1 | i
COCC(=O)NCCC(O)c1cccc2ccccc12 (centres undefined) | i
CCOC(=O)c1ccc(-n2c(C)c(C)n3c4c(=O)n(C)c(=O)n(C)c4nc23)cc1 | i
COC(=O)c1ccc(NC(=O)C2CCCN(c3ccc(-c4ccc(OC)cc4)nn3)C2)cc1 (centres undefined) | i
Cc1ccc(Cl)cc1N1CCN(S(=O)(=O)c2nn(C)cc2C(=O)NCc2ccccc2)CC1 | i
CC(C)C(=O)Nc1ccc(C(=O)NCCNS(=O)(=O)N(C)C)cc1 | i
C=C(C)C1CCC2(C(=O)O[C@@H]3O[C@H](CO[C@@H]4O[C@H](CO)[C@@H](O)[C@H](O)[C@H]4O)[C@@H](O)[C@H](O[C@@H]4O[C@@H](C)[C@H](O)[C@@H](O)[C@H]4O)[C@H]3O)CCC3(C(=O)O)C(CCC4C5(C)CCC(O)C(C)(C)C5CCC43C)C12 (some centres undefined) | i
O=C(Nc1nnc(-c2ccsc2)o1)c1cnn(-c2ccccc2)n1 | i
O=C(CC1CCCC1)NCC1CCN(c2ncccn2)CC1 | i
CC(C)Oc1ccc(C(=O)N2CCC(Cn3c(C(F)(F)F)nc4ccccc43)CC2)cc1 | i
COc1ccc(-n2nnc3c(=O)n(Cc4nc(-c5ccc(Cl)cc5)no4)cnc32)cc1 | i
CC(NC(=O)CSc1nccn1C)c1ccccc1 (centres undefined) | i
COc1nc2cc([N+](=O)[O-])ccc2s1 | i
CS(=O)(=O)N1CCN(C(=O)c2cc(C3CC3)on2)CC1 | i
COc1cc(C(=O)Nc2ccc3c(c2)CCC(=O)N3C)cc(OC)c1OC | i
COC(=O)N1CCc2ccccc2C1C(=O)Nc1ccccc1Cl (centres undefined) | i
COc1ccc2c(c1)c(CC(=O)NCc1ccccc1C)c(C)n2C(=O)c1ccc(Cl)cc1 | i
Cc1nc2sc(C(c3cccc(F)c3)N3CC(C)CC(C)C3)c(O)n2n1 (centres undefined) | i
Cc1ccccc1NC(=O)N1CCC(Oc2ncccc2Cl)CC1 | i
CCC(=O)NCC(Cc1cccc(F)c1)N1CCCC1=O (centres undefined) | i
CC(=O)c1ccc(S(=O)(=O)N2CCN(S(=O)(=O)C3CC3)CC2)cc1 | i
COc1ccc(OC)c(N2CCCn3c2nc2c3c(=O)n(Cc3ccccc3)c(=O)n2C)c1 | i
Cc1ccc(Oc2cccc(C(=O)Nc3cnc(N4CCCC4)nc3)c2)nn1 | i
Cc1ccc(S(=O)(=O)N2CCCCC2CC(=O)NC2CCCCCC2)cc1 (centres undefined) | i
CCOC(=O)N1CCN(Cc2cc(=O)oc3cc(C)c(Cl)cc23)CC1 | i
Cc1ccccc1N1C(=O)CC(N2CCN(c3ccccc3)CC2)C1=O (centres undefined) | i
CC(C)(C)NC(=O)NCc1cnn2ccccc12 | i
COC(=O)C1=C(C)NC(C)=C(C(=O)OC(C)C)C1c1cccc2nonc12 (centres undefined) | i
CCOc1cc(C(=O)Nc2ccc3c(c2)CCC(=O)N3)cc(OCC)c1OCC | i
Cc1ccc(-n2ccnc(SCC(=O)Nc3cc(Cl)ccc3C)c2=O)cc1C | i
CSc1cccc(NC(=O)c2cn(-c3ccc(C#N)cc3)cn2)c1 | i
Cn1cnnc1SCc1cc(=O)c(OCC(=O)Nc2ccccc2)co1 | i
Cn1cccc1CN(Cc1cccs1)C(=O)c1ccsc1 | i
C=CCn1c(=O)c2ccccc2n(Cc2nc(-c3cccc(Cl)c3)no2)c1=O | i
COC(=O)Cn1c(=O)c2c(nc(Br)n2CC(=O)OC)n(C)c1=O | i

Already shown: two of the compounds above.
mol | GIRK2 activ
CC(C)(C)NC(=O)NCc1cnn2ccccc12 | i
COC(=O)C1=C(C)NC(C)=C(C(=O)OC(C)C)C1c1cccc2nonc12 (centres undefined) | i

The results go on:
| Structure | GIRK2 activ |
| --- | --- |
| COc1cccc2cc(-c3nnc(NC(=O)c4ccc(N(C)C)cc4)o3)oc12 | i |
| CCc1noc(-c2cccnc2-n2cnc(C(=O)Nc3ccc(OC)cc3)c2)n1 | i |
| COC(=O)c1ccc(NC(=O)Cn2c3ccc(F)cc3c(=O)n2C(C)(C)C)cc1 | i |
| O=C(CSc1nnc2ccc3ccccc3n12)NCc1ccc2c(c1)OCO2 | i |
| COc1cccc(C(=O)Nc2ccc3nc(C)n(-c4ccc(C)cc4)c(=O)c3c2)c1 | i |
| COc1cc(F)c(F)c(F)c1C(=O)c1cnc(NC2CCN(S(C)(=O)=O)CC2)nc1N | i |
| Cc1cccc(S(=O)(=O)Nc2nc3ccccc3nc2OC(C)C)c1 | i |
| Cc1cn2nnc(C(=O)NC(C)CCc3ccco3)c2c(=O)[nH]1 (centres undefined) | i |
| COc1ccc(Br)c(C(=O)N(Cc2ccoc2)Cc2cccs2)c1 | i |
| Cc1noc(-c2cccnc2N2CCC(NC(=O)c3ccc(C)s3)CC2)n1 | i |
| CC(=O)c1cccc(NC(=O)Cc2cc(=O)[nH]c(SCc3cccc(Cl)c3)n2)c1 | i |
| Cc1nc(N2CCN(C(=O)c3ccc(S(N)(=O)=O)cc3)CC2)cc(-n2cccc2)n1 | i |
| O=C(NCCOc1ccc(-c2ccccc2)nn1)c1ccc(=O)n(Cc2cccc(F)c2)n1 | i |
| O=C(NCc1ccccc1Cl)c1ccc(Cn2c(=S)[nH]c3cc4c(cc3c2=O)OCO4)cc1 | i |
| C=CCOc1ccccc1CN1C(=O)C(=O)c2cc(C)cc(C)c21 | i |
| COCCCn1c(C(=O)Nc2ccc(C(C)C)cc2)cc2c(=O)n3ccccc3nc21 | i |
| CCOCCCNc1nc2c(c(=O)[nH]c(=O)n2C)n1CCOC | i |
| CCS(=O)(=O)N1CCCc2ccc(NS(=O)(=O)c3ccc(OCC(C)C)cc3)cc21 | i |
| COCCN1CCC(CNC(=O)c2cc(-c3ccc(F)cc3)nn2C)CC1 | i |
| Cc1c(C(=O)Nc2cccnc2)nnn1-c1nccs1 | i |
| COc1ccc(OC)c(-c2cc3ccc(OCC=C(C)C)cc3oc2=O)c1 | i |
| O=C(CN1CCc2nc(NC(=O)c3ccco3)sc2C1)Nc1ccc2c(c1)OCCO2 | i |
| CCOc1ccc(N2CCN(CC(=O)Nc3cccc4cccnc34)C2=O)cc1 | i |
| COC(=O)c1ccc(C2C(=C(O)c3cccc(OC)c3)C(=O)C(=O)N2CCN(C)C)cc1 (centres undefined) | i |
| Cc1nnsc1C(=O)NCC1CCC(c2nc3ccccc3[nH]2)CC1 (centres undefined) | i |
| CCCS(=O)(=O)N1CCCc2cc(NS(=O)(=O)c3ccc(OC)c(OC)c3)ccc21 | i |
| CC(C)C(=O)N1CCCc2cc(NC(=O)NCc3cccc4ccccc34)ccc21 | i |
| COc1ccc(-c2ccc(=O)n(CCNS(=O)(=O)c3cc(C)c(C)cc3OC)n2)cc1 | i |
| Cc1csc(NC(=O)CN2CCC(COCc3ccc(C#N)cc3)CC2)n1 | i |
| CCOC(=O)N1CCC(NC(=O)c2csc(Nc3ccc(OC(F)F)cc3)n2)CC1 | i |
| COC(=O)c1ccc(C(=O)N2CCC(Oc3nc4ccccc4s3)CC2)cc1 | i |
| COCCN(Cc1ccsc1)C(=O)C1CCC1 | i |
| CSc1ccccc1NC(=O)c1ccc(S(=O)(=O)N(Cc2ccco2)C2CC2)o1 | i |
| O=C(O)CC(CC(=O)NCCc1cccs1)c1cccs1 (centres undefined) | i |
| CC(C)=CCCC1(C)C=Cc2c(c(C)cc3c2[nH]c2cc(O)c(C4(C)C=CC(C(C)C)CC4)cc23)O1 (centres undefined) | i |
| COc1ccc(NC(=O)Cn2c(N3CCCC3)nc(C)cc2=O)cc1Cl | i |
| CCCc1ccc(S(=O)(=O)N2CCN(c3cnccn3)CC2)cc1 | i |
| Cc1cc(C(F)(F)F)c(C#N)c(SCCCC(=O)N2CCc3ccccc32)n1 | i |
| CCOc1coc(C(=O)Nc2c(C)cc(C)cc2C)cc1=O | i |
| Cc1nc(-c2ccccc2F)sc1CNC(=O)C(C)n1nc(-c2ccco2)ccc1=O (centres undefined) | i |
| COc1cccc(N2CC(c3nc4ccccc4n3CC(=O)OC(C)C)CC2=O)c1 (centres undefined) | i |
| Cc1ccc(C2Oc3ccc(Cl)cc3C3=C2C(c2cccnc2)n2nnnc2N3)cc1 (centres undefined) | i |
| Cc1nc(SCc2nc3ccccc3[nH]2)c2oc3ccccc3c2n1 | i |
| COc1cc(OC)cc(-c2nc(-c3cn(Cc4ccc(C)cc4)nn3)no2)c1 | i |
| CN(C)c1cccc(C(=O)Nc2nc3c(s2)CN(S(C)(=O)=O)CC3)c1 | i |
| Cc1noc(C)c1CCC(=O)N1CCN(C(=O)C2CC2c2ccc3c(c2)OCO3)CC1 (centres undefined) | i |
| Cc1nc2ccc(CN(C)c3ccc(C(=O)N[C@@H](CCC(=O)O)C(=O)O)s3)cc2c(=O)[nH]1 | i |
| Cn1nc(CNC(=O)COc2ccc(Cl)cc2Cl)cc1-c1ccccn1 | i |
| CS(=O)(=O)Oc1ccc2c(c1)O/C(=C\c1ccc(Cl)c(Cl)c1)C2=O | i |
| Cc1nc(C(=O)Nc2ccc3c(c2)CCCN3C(=O)c2ccccc2)cs1 | i |

Ordered by length of the SMILES (rising): part of the list above
| Structure | GIRK2 activ |
| --- | --- |
| Cn1nc(CNC(=O)COc2ccc(Cl)cc2Cl)cc1-c1ccccn1 | i |
| CSc1ccccc1NC(=O)c1ccc(S(=O)(=O)N(Cc2ccco2)C2CC2)o1 | i |
| Cc1nc(-c2ccccc2F)sc1CNC(=O)C(C)n1nc(-c2ccco2)ccc1=O (centres undefined) | i |
| CC(C)=CCCC1(C)C=Cc2c(c(C)cc3c2[nH]c2cc(O)c(C4(C)C=CC(C(C)C)CC4)cc23)O1 (centres undefined) | i |

Screens (PubChem)
